# Cneo AK release – Cryptococcus neoformans lysis via adenylate kinase release | C. neoformans lysis, adenylate kinase release luminescence, 4 h; normalised: neutral wells 0, clomiphene wells 100 | lysis activity, % at 15 µM | 360,000 compounds, 0.2% hits | AID 651654;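 active means mean lysis activity across replicates of at least 80%, whatever share of replicates individually reach that level; inactive means mean lysis activity below 80%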
#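 Signal: Adenylate kinase release luminescence | Assay system: Log-phase Cryptococcus neoformans yeast cells | Input: Cells at 5 × 10^6 per mL | Buffer or medium: Fresh YPD growth medium | Compound: Single dose | Schedule: Static 4 h at 37 °C with compound, 1 h detection | Controls: Clomiphene | Read-out: Luminescence rise reflecting yeast cell lysis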
# miR-122 sensor – inhibitors of miR-122 in Huh7 cells. Huh7 miR-122 Renilla luciferase sensor, 48 h; neutral wells = 0, positive control = 100. activation (reporter increase), % at 12.5 µM. 340,000 compounds, 0.3% hits. AID 602342;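 active means mean replicate activation score at least 90 and every replicate individually at or above 90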;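 further: higher luciferase means less miR-122 activity so hits act as miR-122 inhibitors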
# Statin myotox sup – protects C2C12 myotubes from simvastatin toxicity; ATP luminescence, 48 h; scaled: DMSO 0, geranylgeraniol control 100; rescue of ATP level, % at 7.49 µM; 330,000 compounds, 0.78% hits; AID 602340;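 active means mean ATP rescue above about 67%, or every replicate alone reaching that limit, limit read from the data, passing the limit was not always enough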;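 further: myotubes were challenged with 10 µM simvastatin during compound exposure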
# GSIS activator – GLuc luminescence reporter in INS-1E cells, primary screen for activators of glucose-dependent secretion of insulin | AID 743287 | 370,000 compounds, 0.61% hits | activation, % at 16.6 µM | INS-1E GLuc reporter insulin secretion, 2-3 h;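 active means lowest replicate activation of at least 40%, so every replicate reaches that level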;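 further: 0% = median of neutral control wells and 100% = median of IBMX positive control wells; some compounds called inactive have numbers as strong as hits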
# Active calls of the source: *; nt = no result given; & = joins results of further samples. A portion of the library, so the mix of outcomes need not match the whole.
SMILES,Cneo AK release,miR-122 sensor,Statin myotox sup,GSIS activator
N#Cc1c(-c2cccc(Br)c2)cc(-c2ccco2)[nH]c1=O,nt,nt,14,-10
CN1C2CC(OC(=O)C(CO)c3ccccc3)CC1C1OC12 (centres undefined),-2&2,-1&-7&-9,-6&2&2,5&-6
CC(C)(C)c1cc(NC(=O)COC(=O)c2ccccc2O)n(-c2ccccc2)n1,0,-9,6,-31
CC(C)[N+]1(C)[C@@H]2CC[C@@H]1CC(OC(=O)C(CO)c1ccccc1)C2 (some centres undefined),5,-9,-4,nt
CN1C2CCC1CC(OC(=O)C(CO)c1ccccc1)C2 (centres undefined),-2,0,5,nt
O=C1NC[C@H](c2ccccc2)OC(=O)[C@H](Cc2ccc(F)cc2)CC/C=C/C[C@H]1CC(=O)N(CCO)Cc1ccccc1,0,-7,-95,nt
Cc1nc2ccc(S(=O)(=O)NCC(=O)NCCN3CCCCCC3)cc2s1,6,-3,3,nt
COc1ccc(/C=C/C(=O)O)cc1O,1,3,27,6
CC(=O)c1nc2ccccc2n1S(=O)(=O)c1ccc(Cl)cc1,0,0,-15,10
CC(C)(C(=O)O)c1ccc(C(O)CCCN2CCC(C(O)(c3ccccc3)c3ccccc3)CC2)cc1 (centres undefined),-2,-6,1,nt
CCOc1ccc2nc(S(N)(=O)=O)sc2c1,-1,0,-1,nt
NS(=O)(=O)c1ccc(NC(=O)Nc2ccc(C(F)(F)F)cc2)cc1,1,3,nt,2

# Pulled by compound from the entries so far (five):
SMILES,Cneo AK release,miR-122 sensor,Statin myotox sup,GSIS activator
Cc1nc2ccc(S(=O)(=O)NCC(=O)NCCN3CCCCCC3)cc2s1,6,-3,3,nt
CC(C)(C(=O)O)c1ccc(C(O)CCCN2CCC(C(O)(c3ccccc3)c3ccccc3)CC2)cc1 (centres undefined),-2,-6,1,nt
CC(C)[N+]1(C)[C@@H]2CC[C@@H]1CC(OC(=O)C(CO)c1ccccc1)C2 (some centres undefined),5,-9,-4,nt
O=C1NC[C@H](c2ccccc2)OC(=O)[C@H](Cc2ccc(F)cc2)CC/C=C/C[C@H]1CC(=O)N(CCO)Cc1ccccc1,0,-7,-95,nt
NS(=O)(=O)c1ccc(NC(=O)Nc2ccc(C(F)(F)F)cc2)cc1,1,3,nt,2

# Looked up above.
# In miR-122 sensor, Cc1nc2ccc(S(=O)(=O)NCC(=O)NCCN3CCCCCC3)cc2s1 is entered as -3
# In Cneo AK release, CC(C)(C(=O)O)c1ccc(C(O)CCCN2CCC(C(O)(c3ccccc3)c3ccccc3)CC2)cc1 (centres undefined) is entered as -2
# In Statin myotox sup, CN1C2CC(OC(=O)C(CO)c3ccccc3)CC1C1OC12 (centres undefined) is entered as -6&2&2
# In Cneo AK release, CC(C)[N+]1(C)[C@@H]2CC[C@@H]1CC(OC(=O)C(CO)c1ccccc1)C2 (some centres undefined) is entered as 5
# In Statin myotox sup, N#Cc1c(-c2cccc(Br)c2)cc(-c2ccco2)[nH]c1=O is entered as 14
# In Statin myotox sup, CC(C)(C)c1cc(NC(=O)COC(=O)c2ccccc2O)n(-c2ccccc2)n1 is entered as 6

# Screening results as filed in PubChem.
